# Screening results from PubChem.
# MbtI inh = MbtI salicylate synthase inhibitors, primary screen, biochemical, fluorescence intensity. AID 493033, 2011. P9WFX0. purified MbtI enzyme, fluorescence intensity read-out. inhibition, %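 (about 17 µg/mL by stock and volumes)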. 0.89% of 100,000 active;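 active = above 50% in both replicates, above 80% if mildly self-fluorescent; inactive = the rest, strongly fluorescent compounds included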;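 also: 0% = mean of negative and 100% = mean of positive controls; one replicate is shown; some compounds called inactive have numbers as strong as hits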
# Polio RdRp inh = poliovirus RdRp elongation inhibitors, primary screen, biochemical, fluorescence polarization, total intensity; Genome polyprotein (Poliovirus type 1 (strain Mahoney)), P03300; poliovirus polymerase elongation; hits give low values; % elongation, % (compound at 16.7 µg/mL); 0.66% of 150,000 active; AID 588519, 2011; in the data active = % elongation below about 90%; also: some results filed as inactive read as strong as hits
# Target sequence (P03300 1749-2209 limits assumed): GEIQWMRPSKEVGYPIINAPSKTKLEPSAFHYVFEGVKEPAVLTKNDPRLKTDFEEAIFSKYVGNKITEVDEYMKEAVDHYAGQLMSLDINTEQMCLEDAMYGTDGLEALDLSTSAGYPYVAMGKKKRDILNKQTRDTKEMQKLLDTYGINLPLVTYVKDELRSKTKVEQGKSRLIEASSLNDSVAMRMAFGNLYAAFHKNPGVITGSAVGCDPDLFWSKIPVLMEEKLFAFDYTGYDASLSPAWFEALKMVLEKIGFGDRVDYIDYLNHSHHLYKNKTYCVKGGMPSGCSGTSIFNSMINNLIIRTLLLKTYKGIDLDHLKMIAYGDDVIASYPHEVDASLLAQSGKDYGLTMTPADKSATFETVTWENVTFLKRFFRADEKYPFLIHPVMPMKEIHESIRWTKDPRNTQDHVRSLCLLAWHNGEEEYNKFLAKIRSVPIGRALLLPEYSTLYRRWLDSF
# Mtb MenB inh = M. tuberculosis MenB inhibitors, primary screen, biochemical, absorbance; inhibition, %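 (about 12 µg/mL by stock and volumes)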; MenB enzyme assay, absorbance read-out; some hits fall short of the stated cut; 0.43% of 100,000 active; 1,4-dihydroxy-2-naphthoyl-CoA synthase (Mycobacterium tuberculosis (strain ATCC 25618 / …;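 active = mean of two replicates above 30%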;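 also: 0% = no compound and 100% = wells with inactive enzyme; the first replicate is given; strong numbers were not always called active; inactives centre near -10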
# Target sequence (P9WNP5 whole entry, looked up): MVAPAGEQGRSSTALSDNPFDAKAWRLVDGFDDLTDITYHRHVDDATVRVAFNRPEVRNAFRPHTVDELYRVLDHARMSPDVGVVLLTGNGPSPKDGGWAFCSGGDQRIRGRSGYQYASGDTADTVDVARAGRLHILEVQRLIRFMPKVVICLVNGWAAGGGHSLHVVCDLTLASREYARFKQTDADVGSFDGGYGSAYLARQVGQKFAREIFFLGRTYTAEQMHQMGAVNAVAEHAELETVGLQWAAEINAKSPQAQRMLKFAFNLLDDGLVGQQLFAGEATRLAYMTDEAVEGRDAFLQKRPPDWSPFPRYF
# Polio RdRp inh intensity = second read-out of Polio RdRp inh, no call of its own (marks repeat the call); % elongation; measured here: total intensity read-out; formula for this scale not given here;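 total fluorescence in place of polarization; lower means less elongation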
# Starred values were filed as active, the others as inactive; . = not tested or not shown; & = joins results of further samples.
SMILES,MbtI inh,Polio RdRp inh,Polio RdRp inh intensity,Mtb MenB inh
CCOC(=O)c1c(C)oc2c1c(C(c1ccc(OC)cc1)N1CCOCC1)c(O)c1ccccc12 (stereo not drawn),13,101,105,-13
Cc1ccsc1CN(C)CC(=O)NC1CCCC1,-8,97,104,-9
CC1=C/C(=N\S(=O)(=O)c2ccccc2)C=CC1=O,101*,103,103,-27
CCCCN1CCc2c(c3ccccc3n2Cc2ccccc2)C1,-2,101,106,1
Cc1sc(NC(=O)c2cccs2)c(C(N)=O)c1C,22,98,92,.
NC(=O)N/N=C/c1ccc(-c2cccc(C(F)(F)F)c2)o1,18,102,105,-10
CC(NC(=O)Cn1nnc(-c2cccc(C(F)(F)F)c2)n1)c1ccccc1 (stereo not drawn),-5,104,107,.
Cc1oc(C(C)(C)C)c(CN2CCCC2)c1C(=O)O,-1,101,102,16
CCCCn1c(C)c(C(=O)O)c2cc(OC)ccc21,-79,104,106,.
CN(C)N=Nc1cccc(/C=C/C(=O)O)c1,25,100,101,-20
COc1cc2c(c(OC)c1OC)C(=O)/C(=C/N(C)C)C2,-88,101,105,-15
CCOC(=O)C1CSC(CC(=O)Nc2ccc(OCC)cc2)C(=O)N1 (stereo not drawn),-9,104,101,-22
Cc1ccc2c(CC(=O)N3C(=O)c4cccc(N)c4C3=O)coc2c1,2,98,120,-16
CC(=O)NC1C(=O)N(CCOc2ccccc2)c2ccccc21 (stereo not drawn),1,100,101,-11
CC[n+]1ccc(C)c2cc(C(F)(F)F)ccc21,46,101,105,8
NC(=O)Cn1ccn(Cc2ccc(Cl)cc2)c(=O)c1=O,2,104,105,2
CC(C)(C)C(=O)NCCc1cn2ccccc2n1,101,104,104,-11
Cn1ccsc1=NC(=O)c1cccnc1,34,104,104,-9
S=C(c1cn(Cc2ccc(Cl)cc2)c2ccccc12)N1CCCC1,6,100,100,-60
CCn1nnc2cc(C(=O)Nc3cccc(Cl)c3F)ccc21,-2,99,100,-12
NCCc1nc(-c2ccccc2)cs1,-6,103,102,-19
COc1cc(OC)cc(C(=O)OCC(=O)N2CCC(C(N)=O)CC2)c1,28,101,98,-7
Nc1c(Cl)cc(Cl)cc1C(=O)OCC(=O)N1CCCCC1,-142,101,105,.
COc1ccc(C(O)P(=O)(OC2CCCCC2)c2ccc(N(C)C)cc2)cc1OC (stereo not drawn),11,103,103,-13
CCCC1CCCCCC1NC(C)=O (stereo not drawn),.,101,96,6
Cc1ccc(S(=O)(=O)c2c(O)c3ccc(C(=O)NCc4ccccc4Cl)cc3[nH]c2=O)cc1,-5,105,105,25
Cc1cc(S(=O)(=O)N2CCCC2)ccc1OCC(N)=O,-4,101,103,0
CC(C)NC(=O)C1CCN(Cc2ccccc2Cl)CC1,10,102,101,-33
CC1CCc2sc(C(=O)O)cc2C1 (stereo not drawn),1,103,101,-53
Cc1ccc(C(=O)NCC(=O)O)cc1S(=O)(=O)N1CCCCC1,-3,105,105,-16
c1ccc(-c2cc(NCc3ccco3)n3c(n2)nc2ccccc23)cc1,35,102,112,-31
O=C(CCn1c(=S)[nH]c2ccsc2c1=O)NCCc1ccc(Cl)cc1,26,101,104,-48
Cn1c(N)c(C(=O)NC2CCCCC2)c2nc3ccccc3nc21,-99,93,99,-94
COC(CNC(=O)Cn1nc(Cc2ccncc2)c2ccccc2c1=O)OC,-14,103,105,-14
Cc1ccc(CN(C(=O)NC2CCCC2)C2CCN(Cc3ccccc3)CC2)o1,-9,102,104,1
CC1CCCC(NC(=S)NC(=O)C2CC2)C1C (stereo not drawn),-10,106,105,-26
CC(C)CCN1CCC(CNS(=O)(=O)c2csc(C(N)=O)c2)CC1,-12,99,104,-6
O=C(COC(=O)C1CCC1)NC12CC3CC(CC(C3)C1)C2,-8,100,105,.
Cc1ccc(Cn2ncc3ccccc32)cc1,8,101,96,20
Cc1nc(NCC2CCCO2)c2nnn(Cc3c(F)cccc3Cl)c2n1 (stereo not drawn),10,101,102,-50
N/C(=N\O)c1cn(CCOc2ccccc2Cl)c2ccccc12,5,106,110,9
Cc1noc(C)c1S(=O)(=O)N1Cc2ccccc2CC1C(=O)O (stereo not drawn),-20,99,102,6
COc1ccccc1C1N=C(c2ccc3c(c2)OCO3)CC(c2ccccc2O)N1 (stereo not drawn),-4,100,103,-12
COc1ccccc1OCCCn1cc(C#N)c2ccccc21,-2,100,100,-24
FC(F)(F)c1cc(-c2cccs2)n[nH]1,-8,104,103,1
Cc1cc(=O)n2c(C)csc2c1C#N,6,106,100,-1
COC(=O)c1c(N)n(-c2ccc(N3CCOCC3)cc2)c2nc3ccccc3nc12,-11,98,99,-20
CC(SCC(=O)Nc1nc(-c2ccccc2)cs1)C(=O)O (stereo not drawn),-3,103,105,-6
Cn1nnc2cc(C(=O)N(CCO)c3ccccc3)ccc21,-3,105,101,-46
O=C(c1c(O)c2ccccc2oc1=O)C1CCC1,-3,102,108,-10
CC1CCc2nn(CC(=O)N3CCN(C(=O)c4ccco4)CC3)cc2C1 (stereo not drawn),-5,106,100,-33
CCOC(=O)C1CCCN(C(=O)c2cc(-c3ccc(OC)c(OC)c3)no2)C1 (stereo not drawn),-30,102,101,1
Nc1nonc1-n1nnc(C(=O)N=Nc2c(O)[nH]c3ccc(Br)cc23)c1-c1ccccc1,-1,102,102,-14
CCC1CCCCN1CCCNC(=O)c1ccc(Sc2ccc(C)cc2)c(NC(C)=O)c1 (stereo not drawn),2,101,99,4
O=C(NCC1(c2ccccc2)CCOCC1)c1ccc(Br)cc1,-5,104,106,-9
N#CCC(=O)NC1CC1,-11,103,105,.
O=C1NC2=C(C(=O)OC2)C(c2cccs2)N1 (stereo not drawn),1,102,106,-17
c1ccc(-c2nc3sccn3c2COc2ncnc3ccccc23)cc1,-5,106,103,-24
O=C(CC(C(=O)O)c1c[nH]c2ccccc12)c1ccccc1 (stereo not drawn),3,102,102,-26
CCN(CC)c1ccc(C2Nc3ccccc3-c3cc(C)nn32)c(O)c1 (stereo not drawn),114,100,102,-16
# Next compounds.
SMILES,MbtI inh,Polio RdRp inh,Polio RdRp inh intensity,Mtb MenB inh
CCOc1ccc(S(=O)(=O)N2CCCCC2C)c2ccccc12 (stereo not drawn),42,102,103,-30
O=C(O)c1ccc(CN2CCCC2=O)cc1,2,101,93,-15
Cc1cc(C)c(C)c(C(=O)COC(=O)c2ccc(-n3c(C)ccc3C)cc2)c1C,.,104,101,-8
CN(C)C(=O)CSc1ncnc2ccccc12,-4,102,98,-19
Cc1oc2cc(O)ccc2c(=O)c1-c1ccc(Br)cc1,-121,102,107,.
O=c1c2cc(NC(=S)NCc3ccc4c(c3)OCO4)ccc2nc2n1CCCCC2,-3,100,99,-4
O=C1CC(=O)N(Cc2cccs2)C(=O)N1,0,102,101,-29
COc1ccc(N(C(C)C(=O)NC2CC2)S(=O)(=O)c2cccc(C)c2)cc1 (stereo not drawn),-5,101,109,-14
Cc1cc(=O)cc(C)n1-c1ccc2c(c1)nc(C)n2-c1ccccc1,0,102,101,.
COC(=O)C1(C#N)C(C)(C)C1(C#N)C(=O)OC (stereo not drawn),-4,100,103,-17
COc1ccccc1C(=O)Nc1ccc(O)cc1,-18,92,91,15
O=C(COC(=O)CC1CC2CCC1C2)NCc1ccc(F)cc1 (stereo not drawn),-8,101,107,.
Cc1onc(-c2ccccc2Cl)c1C(=O)OCC(=O)c1ccccc1,-6,102,102,-31
CCN(c1ccc(OC)cc1)S(=O)(=O)c1ccc(-c2cc(C(F)(F)F)no2)s1,-12,103,103,-29
c1cc2c(cc1-n1nnnc1SCC1CC1)OCO2,.,108,112,-8
CCc1ccc(NC(=O)c2cc(C3CC3)on2)cc1,-9,102,102,-1
Cc1ccc(C)c(-c2nnc(NC(=O)C3CC3)o2)c1,-8,99,102,0
N#Cc1ccccc1NC(=O)CSc1ncnc2ccccc12,-2,104,105,-42
CC1=C/C(=N/NC(=O)c2nc3ccccn3c2C)CC(C)(C)C1,2,105,106,-21
COc1ccc(CNCCC2(c3ccccc3)CCOC(C)(C)C2)cc1OC (stereo not drawn),.,105,103,-7
CC(C)Cn1ccn(-c2cccc(Cl)c2)c(=O)c1=O,-8,99,105,-15
c1ccc2c(c1)CC(CN1CCNCC1)O2 (stereo not drawn),0,101,99,-22
CC1(C)CC(=O)C2=C(C1)Nc1ccccc1N(C(=O)c1ccccc1)C2c1ccccc1 (stereo not drawn),.,105,106,-13
c1ccc2c(c1)OCC(CNc1ncnc3nc[nH]c13)O2 (stereo not drawn),2,100,100,-25
CC(C)CCNC(=O)c1nnc(Cc2ccc(Cl)cc2)o1,-5,103,108,-5
CC(C)(C)Nc1ncnc2c1cnn2-c1ccc(Cl)cc1,15,103,97,-9
O=C1CSC(N=Nc2c(O)[nH]c3ccccc23)=N1,16,103,102,-243
O=C(O)C(CO)NS(=O)(=O)c1ccc(F)cc1 (stereo not drawn),7,99,100,-5
Nc1nnc(SCC(=O)NCc2ccco2)n1CC(=O)NCc1ccco1,-15,104,106,-11
Nc1ncc(Cc2ccccc2)s1,18,100,98,-45
O=C(Nc1cscc1S(=O)(=O)c1ccccc1)c1ccccc1Cl,-2,109,107,-10
CCOC(=O)C1=C(O)/C(=C\c2sccc2C)N=C1C,16,100,103,-139
O=c1[nH]c2cc(C(F)(F)F)ccc2n1-c1cc(C(F)(F)F)ccc1O,-20,103&102,107&105,-12
CCc1ccc2[nH]c(C(=O)NC(C)COC)cc2c1 (stereo not drawn),146,106,107,-21
O=C1C2C(C(=O)N1/N=C/c1ccccc1)C1C=CC2C12CC2 (stereo not drawn),-6,102,104,-17
CCOC(=O)c1ccc(N2C(=O)CS(=O)(=O)CC2=O)cc1,-10,98,91,-1
COc1ccc(CCNC(=O)Cc2nn(C)c(=O)c3ccccc23)cc1OC,0,107,100,-51
COc1ccccc1C(=O)NC1=NN(c2ccc3ccccc3c2)CC1,11,104,104,-89
C[C@@H]1CC[C@H]2[C@H](C)[C@H]3CC[C@@]4(O)C5C[C@@H](O)[C@H]6C[C@H](O)CC[C@]6(C)[C@H]5C[C@H]4[C@@H]3CN2C1 (stereo partly drawn),5,99,105,-20
C=CCN(CC=C)C(=O)c1csc(Nc2ccc(OC)cc2)n1,-12,99,102,-18
CC(C)(CO)NC12CC3CC(CC(C3)C1)C2,.,99,97,-10
Fc1ccc2nc(NCc3ccccc3)sc2c1,61,84*,85*,-2
O=C(O)CC1(Cc2nc3ccccc3s2)CCCC1,0,98,98,-46
Cc1cc(C(=O)CSc2nc(N)nc(N)n2)c(C)n1CCC1=CCCCC1,7,102,99,0
COc1ccc(/C=C2\Oc3ccccc3N(CC(=O)NC(C)c3ccccc3)C2=O)cc1 (stereo not drawn),14,101,100,3
O=C(O)c1ccc(Nc2cnn(C34CC5CC(CC(C5)C3)C4)c(=O)c2Cl)cc1,3,97,101,-4
CC(C)(C)c1cc(C(=O)N(CCO)CCO)cc(C(C)(C)C)c1,3,104,101,.
c1ccc2c3nnc4n(c-3nc2c1)CCCS4,8,99,101,-22
C=CCc1cccc2cc(C(=O)N3CCN(c4ccccc4F)CC3)c(=O)oc12,.,105,105,-8
CC1(C)CC(CCC(=O)NC(=S)Nc2ccccc2Cl)C(=O)O1 (stereo not drawn),-7,100,102,-8
O=c1cnc2ccccc2n1Cc1ccc(Br)cc1,52,103,107,-15
CC(C)(CN1CCCCCC1)NS(=O)(=O)c1ccc(Cl)cc1,9,99,101,-17
CS(=O)(=O)CCC1NC(=O)N(CC(=O)c2ccccc2)C1=O (stereo not drawn),-5,103,98,-31
